# thrombin 1536 = inhibitors of human thrombin | alpha-thrombin, Boc-VPR-AMC fluorogenic substrate cleavage | hit rate 0.26% among 220,000 | P00734 | AID 1046 | inhibition, % at 5 µM;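 active means inhibition at or above 40%; inactive means inhibition below 40%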;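 further: 0% = enzyme with no compound and 100% = wells without enzyme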
#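 System – human alpha-thrombin protein · Reagent – Boc-VPR-AMC substrate, 15 µM final · Compound – 5 µM single dose in 0.2% DMSO · Schedule – reaction at room temperature · Technique – AMC fluorescence at 355 nm excitation and 460 nm emission · Read-out basis – % inhibition relative to enzyme controls and enzyme-free blanks · Control set – no-compound enzyme wells and no-enzyme blanks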
# Runt-SMMHC FRET = Runt domain-CBFb-SMMHC interaction inhibition; Q01196+Q13951; Cerulean-Runt/Venus-CBFb-SMMHC FRET ratio 530/480, 1 h; inhibition, % at 20 µM; hit rate 0.74% among 220,000; AID 1434;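 active means mean inhibition across duplicate retests at 20 µM reaching about 50%, limit read from the data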;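 further: 0% = DMSO wells and 100% = wells with excess untagged CBFb-SMMHC; inhibitors lower the FRET ratio by blocking Runt binding to CBFb-SMMHC; some results filed as inactive read as strong as hits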
# Runt-CBFb FRET = Runt domain-CBFb interaction inhibition; Cerulean-Runt/Venus-CBFb FRET ratio 530/480, 1 h; hit rate 0.46% among 220,000; Q01196+Q13951; inhibition, % at 20 µM;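 active means inhibition over about 50% at 20 µM in the single-dose screen, limit read from the data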;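 further: 0% = DMSO wells and 100% = excess unlabeled CBFb competitor control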
#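 Assay system: Cerulean-tagged RUNX1 Runt domain (FRET donor) fusion protein / Amount: 100 nM each of Venus-CBFb and Cerulean-Runt domain / Medium: Tris buffer pH 7.5 with salts and BSA / Also added: Venus-CBFb 100 nM / Schedule: 1 h complex formation plus 1 h compound treatment, room temperature / Signal: FRET fluorescence / Read-out: loss of energy transfer signal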
# Hck Nef HTS = human Hck-Nef kinase inhibition; P08631; Recombinant Hck-YEEI plus Nef, Z-Lyte FRET kinase assay; inhibition, % at 20 µM; hit rate 0.68% among 220,000; AID 463187;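 active means Hck-Nef kinase inhibition above about 50%, limit read from the data; inactive means inhibition below that limit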;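 further: 0% = DMSO with Hck plus Nef and 100% = Hck alone without Nef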
# Target sequence (P08631 whole entry, looked up): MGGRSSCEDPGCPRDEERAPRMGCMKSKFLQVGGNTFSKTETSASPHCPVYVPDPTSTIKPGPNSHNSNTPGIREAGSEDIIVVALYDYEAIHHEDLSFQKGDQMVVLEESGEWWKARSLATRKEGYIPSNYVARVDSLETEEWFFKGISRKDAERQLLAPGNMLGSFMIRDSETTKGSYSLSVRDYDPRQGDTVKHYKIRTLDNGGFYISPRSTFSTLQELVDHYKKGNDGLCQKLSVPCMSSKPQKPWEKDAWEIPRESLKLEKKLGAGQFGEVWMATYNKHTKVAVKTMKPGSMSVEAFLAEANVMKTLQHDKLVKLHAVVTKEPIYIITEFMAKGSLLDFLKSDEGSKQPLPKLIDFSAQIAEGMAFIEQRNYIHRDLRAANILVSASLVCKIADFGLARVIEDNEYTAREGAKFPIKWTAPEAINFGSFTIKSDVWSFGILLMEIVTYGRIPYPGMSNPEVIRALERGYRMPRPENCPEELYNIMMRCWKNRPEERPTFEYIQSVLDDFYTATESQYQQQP
# Wee1 degr inh = human Wee1 degradation inhibition, primary screen; P30291; HeLa Luc-Wee1K328M stability, luciferase luminescence; 100% = proteasome inhibitor MG132 effect; reporter increase, % at 5 µM; hit rate 1.2% among 220,000; AID 1321;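 active means activation above the mean of all tested compounds plus 3 SD, set per screening run, cut at about 8.8% in these data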;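 further: cells exposed to compound for 20 h before luminescence read; 0% = DMSO alone and 100% = MG132 at 30 µM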
# KLK5 inh = inhibitors of human kallikrein 5. Q9Y337. AID 873. inhibition, % at 5 µM. hit rate 0.59% among 210,000. recombinant hK5, fluorogenic AMC substrate cleavage;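 active means inhibition of 40% or more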;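 further: 0% = enzyme controls without compound and 100% = no-enzyme blanks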
# Target sequence (Q9Y337 67-293 limits assumed): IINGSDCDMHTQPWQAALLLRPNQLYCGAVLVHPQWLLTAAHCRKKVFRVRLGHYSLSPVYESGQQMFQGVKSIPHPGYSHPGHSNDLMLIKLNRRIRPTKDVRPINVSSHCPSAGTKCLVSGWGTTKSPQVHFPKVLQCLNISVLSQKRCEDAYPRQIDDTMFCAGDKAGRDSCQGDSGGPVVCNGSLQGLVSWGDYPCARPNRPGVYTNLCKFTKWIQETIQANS
# 14-3-3 Bad PPI = disrupts binding of bovine 14-3-3 zeta to phospho-Bad peptide; hit rate 0.71% among 220,000; TR-FRET 14-3-3zeta/Dy647-pBad peptide displacement, 1 h; inhibition, % at 21.7 µM;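 active means inhibition above about 70%, limit read from the data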;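 further: 0% = full 14-3-3 plus peptide FRET controls and 100% = background without 14-3-3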
# Target sequence (P63103 whole entry, looked up): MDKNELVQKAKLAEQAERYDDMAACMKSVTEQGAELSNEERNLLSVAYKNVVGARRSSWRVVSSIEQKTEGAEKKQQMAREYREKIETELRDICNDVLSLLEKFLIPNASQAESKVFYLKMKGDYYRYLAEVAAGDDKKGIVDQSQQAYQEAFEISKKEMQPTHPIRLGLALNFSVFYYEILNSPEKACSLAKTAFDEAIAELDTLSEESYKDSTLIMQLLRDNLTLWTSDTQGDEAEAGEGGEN
# Starred values were filed as active, the others as inactive; · = no result given; [ ] = remark or other dose. These rows are one share of the data; count on the stated rates, not on these rows.
no.	SMILES	thrombin 1536	Runt-SMMHC FRET	Runt-CBFb FRET	Hck Nef HTS	Wee1 degr inh	KLK5 inh	14-3-3 Bad PPI
1	O=C(Nc1ccc(F)cc1)c1nc[nH]c1C(=O)Nc1ccccc1[N+](=O)[O-]	-3	-3	5	5	-2	-15	24[fluorescence artefact?]
2	CC1=C(C(=O)Nc2cccnc2)C(c2cccnc2)n2ncnc2N1 (stereo unspecified)	-11	4	-2	3	1	-14	6
3	O=C(NCc1cccnc1)C1CC(c2ccc(F)cc2)=NO1 (stereo unspecified)	3	-1	2	3	-1	-2	·
4	CCOCCCNC(=S)NCCCNc1nc2cc3c(cc2cc1C#N)OCO3	2	129*	20	21	-1	-34	5
5	COC(=O)/C(C#N)=C/c1ccc(OC(=O)c2ccccn2)cc1	-1	44	22	16	0	-13	-1
6	Cc1nc2ccc(NC3=NCCCCC3)cc2s1	1	8	7	3	-2	9	79*
7	COC(=O)Cc1cc(=O)[nH]c(/N=C(\N)Nc2cccc(C)c2)n1	-16	2	0	25	1	6	-13
8	CC1=C(C(N)=O)C(c2cccc(OCc3ccccc3)c2)n2nnnc2N1 (stereo unspecified)	-6	4	-2	6	-2	0	1
9	COc1ccc(C(=O)n2nc(-c3ccc(C)cc3)nc2N)cc1OC	3	-5	0	-1	-3	7	3
10	O=C(CN1CCOCC1)Nc1ncc(Br)cc1Br	2	-3	1	0	0	4	-5

# Copied from the list:
# no. 1 | Hck Nef HTS = 5
# no. 3 | thrombin 1536 = 3
# no. 10 | Hck Nef HTS = 0

# Carrying on.
no.	SMILES	thrombin 1536	Runt-SMMHC FRET	Runt-CBFb FRET	Hck Nef HTS	Wee1 degr inh	KLK5 inh	14-3-3 Bad PPI
11	Cc1ccnc2nc(C(=O)N3CCN(S(=O)(=O)c4ccccc4)CC3)nn12	2	0	-2	5	0	-15	-9
12	CN(Cc1nc2ccc(F)cc2[nH]1)Cc1c(C(=O)N(C)C)nc2ccc(Cl)cn12	-13	-1	-5	18	4	-4	-11
13	Cc1nc2sc(C(N)=O)c(N)c2c(C)c1CC(=O)c1ccccc1	-2	-3	·	34	0	1	-8
14	CCCCOc1ccc2c(c1)/C(=C(\C(Cl)=C(Cl)Cl)[N+](=O)[O-])N2	-11	-31	-10	11	-2	-7	45
15	COc1ccccc1C1C(C#N)=C(N)Oc2cc(C)n(CCCn3ccnc3)c(=O)c21 (stereo unspecified)	3	-5	3	1	0	-1	-2
16	Cc1ccc2nc3c(nc2c1)-c1ccccc1C3=O	1	-8	-1	1	1	-4	1
17	Cn1c(C(=O)NCC2CCCO2)cc2c(=O)n3ccccc3nc21 (stereo unspecified)	-10	61*	23	28	1	-51	19
18	COC(=O)c1ccc(OC(=O)c2ccccn2)cc1	7	-2	-4	-4	-1	-6	-7[fluorescence artefact?]
19	Cc1ccc(-c2nn3cnnc3c3ccccc23)cc1C	-1	3	-2	-7	0	3	-2
20	N#Cc1ccc(/C=N/NC(=O)c2cc(-c3cccs3)nc3ccccc23)cc1	-8	-3	-1	0	3	0	6
21	COC(=O)c1cc2ccsc2n1Cc1ccccc1F	2	-3	1	4	0	-8	2
22	CN1C(=S)N(c2ccccc2)C(=O)/C1=C/c1ccco1	-7	0	5	0	-4	-2	7
23	COC(=O)Cc1cc(=O)[nH]c(/N=C(\N)Nc2ccc(C)cc2C)n1	-6	-4	-4	1	0	-8	4
24	CCC/C(=N\NC(=O)c1ccc(CSc2nncn2C)cc1)c1ccccc1	-8	-7	-2	2	-1	-15	-17
25	CCOC(=O)c1nc2nc(-c3cccs3)cc(C(F)(F)F)n2n1	-18	18	4	9	-4	-45	0
26	S=c1[nH]nc(-c2ccccc2Cl)n1Cc1ccccc1	-15	8	3	24	-3	0	-6
27	Cc1nn(-c2ccc(Cl)cc2)c2[nH]c(=O)c(CNCc3ccc4c(c3)OCO4)cc12	-2	-6	-6	2	-1	-1	-10
28	COc1ccc(N=CC2=C(O)CCCC2=O)cc1	-7	-4	0	0	0	-7	2[fluorescence artefact?]
29	CSc1nc(-c2ccco2)nn1C(=O)c1ccccc1Cl	0	-4	-4	17	-2	52*	5
30	COc1cc(C)c(S(=O)(=O)NCc2ccc3c(c2)OCO3)cc1C	-4	1	2	6	1	-20	3
31	COC(=O)CCN(C(=O)C12CC3CC(CC(C3)C1)C2)c1ccccn1	0	-2	0	-1	-2	-3	1[fluorescence artefact?]
32	O=C(N/N=C/C1CCCCC1)c1ccccn1	6	3	-1	1	1	3	-4
33	O=C(COc1ccc(Cl)cc1)NCC(=O)N/N=C/c1cccs1	-24	3	-3	18	4	-2	-11
34	Cc1cccc(N2CCN(C(=O)c3cc(C)oc3C)CC2C)c1 (stereo unspecified)	-2	2	-1	0	0	-16	-9
35	Cc1cc(C)c(S(=O)(=O)Nc2cccnc2)c(C)c1	-1	0	0	-3	1	1	3[fluorescence artefact?]
36	Cc1ccc(/C=N/n2c(-c3ccncc3)n[nH]c2=S)o1	-3	7	18	17	-1	0	-1
37	CCOC(=O)COc1cc2c3c(c(=O)oc2cc1C)CCCC3	2	5	0	-4	1	4	9
38	Cc1cccc(C)c1NC(=O)CSc1nc(-c2ccco2)cc(C(F)(F)F)n1	0	1	-2	5	0	-5	-9[fluorescence artefact?]
39	CC(C)NC(=O)CC(=O)NN=C1CCCCC1	5	-7	-1	4	1	0	-10
40	Cc1sc(NC(=S)NC(=O)c2ccc(C(C)(C)C)cc2)c(C#N)c1C	2	2	20	2	2	4	-1
41	COc1ccc2c(c1)-c1nc(NC(=O)c3ccco3)sc1CC2	4	7	-1	-6	1	-7	29
42	CCOc1ccc(NC(=O)CSc2nnc(Cn3cnc([N+](=O)[O-])n3)n2CC)cc1	2	-1	0	14	-4	26	1
43	O=C(c1ccccc1)c1nc[nH]c1C(=O)Nc1ccccc1	-3	4	2	1	0	-84	-5
44	COc1ccc(C(=O)n2nc(-c3ccc(Cl)cc3)nc2N)cc1OC	-2	-3	0	81*	-3	19	10
45	Cc1ccc(S(=O)(=O)NCC(=O)OCc2ccccc2)cc1	-1	-2	-2	-4	4	-7	-4
46	COc1nc(NCCc2ccc(OC)c(OC)c2)nc(OC)n1	-1	3	0	2	-1	-2	-2[fluorescence artefact?]
47	O=C1C2C3C=CC(C3)C2C(=O)N1CCN1CCN(Cc2ccc([N+](=O)[O-])cc2)CC1 (stereo unspecified)	-3	-1	-1	5	-2	-2	-4
48	CC(=O)c1ccccc1OC(=O)c1ccco1	1	-5	3	0	0	4	4
49	Cc1nn(C(=O)c2ccc3c(c2)OCO3)c(N)c1-c1ccccc1	-6	-4	-1	-23	2	-7	1
50	COc1cc(C(=O)NCc2cccc3ccccc23)ccc1OCc1ccccc1	5	1	0	1	-2	2	-8
51	COc1ccc(C(=O)Oc2cc(N)n(S(=O)(=O)c3ccccc3)n2)cc1	2	3	1	-7	2	1	6
52	Cc1ccc(/C=N\n2c(-c3ccccc3)n[nH]c2=S)s1	2	8	12	-1	-1	-14	6
53	Cn1c(-c2ccc3c(c2)OCO3)cnc1NC(=O)CCC(=O)NCCc1ccccc1	-10	-2	-2	0	8	-18	2
54	Cc1ccc([N+](=O)[O-])cc1-c1ccc2cccc(C)c2n1	1	-6	1	1	-3	-19	-2
55	COc1cc2nc(CCc3ccccc3)oc(=O)c2cc1OC	-5	0	2	-6	-1	2	-1
56	COc1ccc(C(=O)Oc2ccc3c(C)cc(=O)oc3c2C(C)=O)cc1	2	-90	0	-31	-2	-13	4
57	CC(=O)n1nc2nc(C)cc(C)c2c1N	4	-2	-2	0	-4	2	5[fluorescence artefact?]
58	Cc1ccc(C(=O)O/N=C2\CCS(=O)(=O)c3sccc32)cc1	-1	0	-2	3	-1	-12	1
59	O=C(Nc1ccc(F)cc1F)c1csc(-c2cccs2)n1	-5	-3	-1	-17	11*	6	4
60	O=C1OC(c2ccccc2)=NC12CC2c1ccc(Cl)cc1 (stereo unspecified)	9	-5	-1	6	-1	-1	-7

# Next section
no.	SMILES	thrombin 1536	Runt-SMMHC FRET	Runt-CBFb FRET	Hck Nef HTS	Wee1 degr inh	KLK5 inh	14-3-3 Bad PPI
61	N#CCCN(CCC#N)C(=O)c1ccc2c(c1)OCO2	-7	0	-2	-24	-1	-11	4[fluorescence artefact?]
62	O=[N+]([O-])c1cc(C(F)(F)F)ccc1NCCOc1ccccc1	-5	-4	-4	4	-4	-12	-6[fluorescence artefact?]
63	C=CCn1c(COc2ccccc2)nnc1SCC(=O)Nc1ccc(S(N)(=O)=O)cc1	-21	2	0	-1	-1	-25	-9
64	COc1ccc2cc3cc(C(=O)NCCCN4CCc5ccccc5C4)sc3nc2c1	-3	-10	-1	4	3	-8	-7[fluorescence artefact?]
65	C/C(Cc1ccccc1)=N\NC(=O)CNC(=O)c1ccc(Cl)cc1	0	-4	2	4	1	-9	1
66	O=c1oc2ccccc2cc1-c1csc(Cc2nc(-c3ccc(Cl)cc3)cs2)n1	3	-16	-2	2	1	-7	-14[fluorescence artefact?]
67	COC(=O)CCc1sc(Nc2ccccc2)nc1-c1ccc(OC)cc1	-4	11	6	2	0	-3	-8[fluorescence artefact?]
68	Cc1nn(-c2ccccc2)c2c1/C(=N/O)CC(C)(C)C2	-5	0	-1	1	-3	-21	4
69	COC(=O)Cc1cc(=O)[nH]c(/N=C(\N)Nc2ccc(C)cc2)n1	-7	-2	0	-10	-1	1	-2
70	COc1ccc(-c2cc(C(F)(F)F)nc(NCc3ccco3)n2)cc1OC	0	-4	-6	3	-1	12	8
71	CC(C)NC(=O)NC(=O)CSc1nnc(C(F)(F)F)n1C	-3	-2	-2	17	-2	-5	-4
72	CC(=O)NS(=O)(=O)c1cccnc1Nc1cccc(Cl)c1	-7	-4	0	2	5	-8	-5
73	O=C(c1ccccc1)c1nn(-c2ccc(Cl)cc2)c(=O)cc1C(F)(F)F	4	5	1	-7	1	1	1[fluorescence artefact?]
74	CCOC(=O)N1CCN(C(=O)C2CCN(S(=O)(=O)N3CCCC3)CC2)CC1	-4	1	1	0	2	-2	-8
75	COC(=O)CSc1ncc(C#N)c(N)n1	-5	8	4	-2	-3	0	8
76	Cc1ccnc(N2CCC(C(=O)NC3CCCCCC3)CC2)n1	-8	0	1	1	-3	-3	5
77	CN(C)S(=O)(=O)c1cccc(NC(=O)COC(=O)/C=C/c2ccc(Br)o2)c1	-5	-1	4	19	-1	-4	-4
78	Nc1c(-c2ccc(F)cc2)cnn1C1CCS(=O)(=O)C1 (stereo unspecified)	-2	1	0	0	0	-11	-8[fluorescence artefact?]
79	CC(Nc1nc(-c2ccccc2O)nc2ccccc12)c1ccccc1 (stereo unspecified)	-6	-13	0	5	1	0	-1
80	O=C(O)c1cc2nc(-c3ccccc3)cc(C(F)(F)F)n2n1	3	-8	-3	2	0	-6	2
81	CCn1c(=O)c2c3c(sc2n2cnnc12)CCC3	-12	-3	2	3	1	-25	-15
82	COc1ccc(/C=N/n2c(=O)[nH]c3c([nH]c4ccc(C)cc43)c2=O)cc1CN1CCOCC1	22	1	-2	-1	2	31	-1
83	Clc1cccc(CNc2nnnn2-c2ccccc2)c1	1	1	-3	-2	-1	-10	-2
84	COCCn1c(SCc2cnc(-c3ccccc3)s2)nnc1-c1ccncc1	-3	-8	2	-1	1	1	-14

# Part of the list above, reduced to KLK5 inh, Hck Nef HTS and Runt-SMMHC FRET:
nr	canonical_smiles	KLK5 inh	Hck Nef HTS	Runt-SMMHC FRET
82	COc1ccc(/C=N/n2c(=O)[nH]c3c([nH]c4ccc(C)cc43)c2=O)cc1CN1CCOCC1	31	-1	1
81	CCn1c(=O)c2c3c(sc2n2cnnc12)CCC3	-25	3	-3

# Screens: PubChem, several laboratories
